# Vaccinia pol inh: blocks vaccinia virus processive DNA synthesis; in vitro processive DNA synthesis, absorbance read-out; hits give low values; some inactives read as strong as hits; normalized absorbance, % (concentration not given with the values); 46,000 compounds, 0.94% hits;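 active means replicate mean up to 90% and picked by the depositor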;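 further: 100% = median of the test wells of a plate; 100 nL library stock went into each well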
# The depositor's hits bear a star; & = joins results of further samples.
No.	smiles	Vaccinia pol inh
1	CCc1cc(C(=O)Cn2cnc3ccccc32)c(O)cc1O	100
2	CCOc1ccc(S(N)(=O)=O)cc1	101
3	CC(C)(C)C(=O)C(Oc1ccc(Cl)cc1)n1cncn1 (centres undefined)	95
4	CC(C)(C)c1ccc(NC(=S)NCc2cccnc2)cc1	103
5	COC(=O)c1sc(-c2ccccc2)cc1NC(=O)C1CC1	101
6	CCOc1cccc2cc(C(=O)Nc3nccs3)c(=Nc3cccc(C(F)(F)F)c3)oc12	80
7	Clc1ccccc1COc1cccc(CNCc2cccnc2)c1	100
8	Cn1nc(-c2ccccc2)c(/C=N/O)c1Cl	100
9	CCC(SC1=Nc2ccccc2C2=NC(CC(C)C)C(=O)N12)C(=O)Nc1ccc2c(c1)OCO2 (centres undefined)	100
10	CCN(CCCn1c(=S)[nH]c2cc3c(cc2c1=O)OCO3)c1cccc(C)c1	97
11	Fc1ccccc1C1Nc2ccc3ccccc3c2C2C=CCC21 (centres undefined)	100
12	O=C(c1ccco1)N1CCN(Cc2cccnc2)CC1	101
13	OC(COc1ccc(C2CCCCC2)cc1)CN1CCCCC1 (centres undefined)	91
14	N#CCc1nc(-c2ccc(Br)cc2)cs1	82
15	CCCN(CCC)C(=O)CSc1ncccc1C(=O)Oc1ccccc1Cl	99
16	Cc1cc(NCc2ccco2)ncn1	100
17	COc1cc(CCN)cc(OC)c1OC	100
18	O=C(NC1CCCCC1)c1cc2c(=O)[nH]c3ccccc3c2s1	100
19	O=C1C2=C(NC(=S)NC2c2ccccc2)c2ccccc21 (centres undefined)	87
20	Cn1c(Cc2ccsc2)nnc1Sc1nc2ccc(Cl)cc2s1	108
21	c1ccc2[nH]c(SCSc3nc4ccccc4[nH]3)nc2c1	92
22	N#Cc1ccc(C=Nc2cccc(C#N)c2)cc1	101
23	O=C(/C=C1\SC(=O)N(Cc2ccc(F)cc2)C1=O)Nc1nccs1	117
24	O=C(Cn1nnc(-c2ccccc2)n1)c1ccccc1	101
25	c1cncc(-c2nc(-c3ccco3)cs2)c1	90
26	CCOc1ccc(/C=C2/C(=O)N(C)C(=S)N2CC(=O)OC)c(OCC)c1	98
27	O=C(CCc1cn(Cc2ccc(F)cc2)c2ccccc12)N1CCOCC1	74
28	Clc1cccc(-n2nnc(-c3ccccc3)n2)c1	90
29	N#CCSC1=Nc2ccccc2C2=NC(CCC(=O)NCc3ccccc3)C(=O)N12 (centres undefined)	99
30	O=C(NCC1CCCO1)c1ccc(Cn2c(=S)[nH]c3ccccc3c2=O)cc1 (centres undefined)	102
31	O=C(O)c1ccccc1C(=O)N(Cc1ccccc1)Cc1ccccc1	96
32	O=c1[nH]nc(CSc2ccccn2)c2ccccc12	95
33	CC(C)(C)NC(=S)N1CCSCC1	97
34	O=C(NCc1ccccc1)N1CCOc2ccccc21	98
35	COc1ccc2c(c1)-c1ccccc1S(=O)(=O)N2	104
36	COC(=O)c1ccc2c(c1)N(Cc1nc(-c3cccc(Cl)c3)oc1C)C(=O)C1CCCN21 (centres undefined)	100
37	NNC(=O)CS(=O)Cc1cccc(C(F)(F)F)c1 (centres undefined)	93
38	O=C(Nc1nc(-c2cc3ccccc3oc2=O)cs1)C1CCCCC1	99
39	Cc1nnsc1C(=O)Nc1ccc(N(C)C)cc1	110
40	CC1CC[C@@]2(NC1)OC1CC3C4CC=C5CC(O)CCC5(C)C4CCC3(C)C1[C@@H]2C (some centres undefined)	99
41	Cc1ccccc1-c1nnc(NC(=O)C(C)SC2=NCCS2)s1 (centres undefined)	99
42	Cc1cccc(-n2c(C)nc3cc(C(=O)NCc4ccc(F)cc4)ccc32)c1	100
43	CC(=O)Oc1ccccc1C(=O)O	100
44	CCOC(=O)N1CCN(CC(O)Cn2c(=O)c3c(ncn3C)n(C)c2=O)CC1 (centres undefined)	102
45	C=CCc1ccc2c(c1)OCO2	100
46	Cc1cccc(C)c1NC(=O)COc1ncnc2ccccc12	103
47	C[C@]12CCC(=O)C=C1CCC1C2[C@@H](O)C[C@@]2(C)C1CC[C@]2(O)C(=O)CO (some centres undefined)	101
48	CCOP(=S)(OCC)C(O)c1ccccc1 (centres undefined)	105
49	O=C(COc1ccc2ccccc2c1)Nc1cccc(-c2nc3ncccc3o2)c1	100
50	COc1ccc(-c2c(C)oc3cc(OC(C)=O)ccc3c2=O)cc1	101

# Further compounds follow.
No.	smiles	Vaccinia pol inh
51	Cc1cc(NC(=O)N(C)C)nn1-c1ccccc1	106
52	CCn1c(SCC(=O)Nc2ccccc2)nnc1-c1c[nH]c2ccccc12	102
53	CCOC(=O)Cc1cc(=O)oc2cc(OCC)ccc12	98
54	CC(C)N1C(=O)S/C(=C/c2cc(Br)c(OCC(=O)O)c(Br)c2)C1=O	100
55	O=C(NCc1ccccc1)C1CCN(Cc2cnn(-c3ccccc3)c2-n2cccc2)CC1	100
56	CCC1CCCCN1C(=O)CSc1nc2c([nH]c3ccccc32)c(=O)n1-c1ccccc1 (centres undefined)	107
57	O=S1OCC(COc2cccc3ccccc23)O1 (centres undefined)	102
58	O=C(Cn1ncc2c([nH]c3ccccc32)c1=O)NCCC1=CCCCC1	111
59	COc1ccccc1NC(=O)C1CC(=O)N(C)C(=Nc2ccccc2)S1 (centres undefined)	100
60	O=c1[nH]nc(C(F)(F)F)n2cccc12	105
61	CCN1CCN(C(c2ccccc2)c2sc3ncnn3c2O)CC1 (centres undefined)	103
62	COc1ccc(C(=O)CSC2=C(C#N)C(c3cccs3)CC(=O)N2)cc1 (centres undefined)	101
63	Cc1ccc(N=Cc2ccc3ncccc3c2)c(Br)c1	101
64	CCOc1nc(NC2CCCC2)nc(N2CCC(C)CC2)n1	89
65	CC(=O)N(c1ccccc1)C1CC(C)N(C(=O)C(C)C)c2ccccc21 (centres undefined)	104
66	COc1ccc2nc(/C(C)=N/O)sc2c1	96
67	CCOC(=O)CCc1n[nH]c(=O)[nH]c1=O	102
68	COc1ccc(CCNC(=O)c2c(C)cc(=O)oc2C)cc1OC	102
69	CSc1ncccc1C(=O)NCc1ccc(F)cc1	107
70	COC(=O)c1ccc(S(=O)(=O)NN2CCOCC2)n1C	103
71	Cc1c2n(c3ccccc13)C/C(=C\c1ccccc1)C2=O	92
72	COc1cc(OC)c2c(c1)ncc1c(C)nn(-c3ccccc3)c12	97
73	CN(C)/C=C1\C(=O)N(C)N=C1c1ccccc1O	101
74	COC(=O)c1c(NC(=O)CC2Sc3ccccc3NC2=O)sc2c1CCCC2 (centres undefined)	102
75	O=C1CSCC(=O)N1Cc1ccc(Cl)c(Cl)c1	107
76	Cc1cc(-c2nc(-c3ccc(Cl)cc3)cs2)no1	96
77	CCCCN(C)C(=O)C1CCN(Cc2ccc(OCC)cc2)CC1	97
78	O=C(O)c1c2c(nc3ccccc13)CCCC2	102
79	CCCCC[C@H](O)/C=C/[C@H]1C(=O)C=C[C@@H]1C/C=C\CCCC(=O)O	99
80	CN(C)CCCN1C(=O)C(=O)/C(=C(/O)c2ccccc2)C1c1ccccc1 (centres undefined)	102
81	COc1ccc2c(c1)c(CC(=O)Nc1ncccc1C)c(C)n2C(=O)c1ccc(Cl)cc1	98
82	C(=N\c1ncccn1)/c1ccncc1	106
83	Cc1ccc(-n2nc(C(=O)O)c(/C=C/c3ccc(Cl)cc3Cl)c(C#N)c2=O)cc1C	100
84	Clc1cccc(Cl)c1OCCCn1ccnc1	99
85	CCOC(=O)C1CCCN(C(=O)c2ccccc2F)C1 (centres undefined)	103
86	O=C(CCN1C(=O)/C(=C/c2ccc3c(c2)OCO3)SC1=S)Nc1ccccc1	100
87	O=C(Oc1ccc(N(Cc2cccs2)C2=NS(=O)(=O)c3ccccc32)cc1)c1ccccc1	100
88	CCOC(=O)N1CCN(c2ccc3ccccc3n2)CC1	101
89	COc1ccc(C(C2=C(O)CC(C)(C)CC2=O)c2c(C)[nH]c3ccccc23)cc1 (centres undefined)	100
90	CCOc1ccccc1NC(=S)NCc1cccn1C	92
91	COc1ccc(CN2C(=O)c3ccc(F)cc3C2=O)cc1	106
92	O=P1(Nc2ccc(F)cc2)COc2ccccc2OC1	104
93	COc1nsc(SC)c1C#N	100
94	CC(C)C(=O)Nc1nc2ccc(S(C)(=O)=O)cc2s1	106
95	Cc1ccc(C(=O)COC(=O)C2c3ccccc3Oc3ccccc32)cc1C	99
96	O=C(CSc1nnc2scc(-c3ccc(Cl)cc3)n12)NCc1ccc2c(c1)OCO2	97
97	Cc1ccc(NC2(C#N)C(=O)Nc3ccccc32)cc1 (centres undefined)	102
98	CCOC(=O)NS(=O)(=O)c1ccccc1Cl	110
99	O=C1CC(c2ccccc2)c2c(O)cc(O)cc2O1 (centres undefined)	101
100	O=C(Nc1cccc(F)c1)c1c(Cl)nc2ccccn12	88

# Remaining list, next part:
No.	smiles	Vaccinia pol inh
101	CCOC(=O)Nc1nc2ccccc2s1	99
102	O=C(CC(C(=O)O)C1CCCO1)Nc1ccccc1 (centres undefined)	103
103	CCOC(=O)N1CCN(S(=O)(=O)N2CCCC(C(=O)NCc3ccc(F)cc3)C2)CC1 (centres undefined)	96
104	CC(C)c1ccc(NC(=O)C2C3C=CC4(CN(Cc5cccnc5)C(=O)C24)O3)cc1 (centres undefined)	104
105	CSCCC(NC=O)C(=O)NC(C)C(=O)O (centres undefined)	100
106	Cc1onc(-c2c(F)cccc2Cl)c1NC(=O)OCc1sccc1-n1c(C)ccc1C	101
107	CC(C)(C)OC(=O)CN1C(=O)c2ccccc2S1(=O)=O	102
108	Nc1sc2c(c1-c1nc3ccccc3s1)CCC2	100
109	CCCCC(=O)Nc1nnc(-c2ccc(OC)cc2OC)s1	104
110	CC(=O)Nc1ccc(Oc2ccc(-c3noc(C)n3)cc2)cc1	96
111	COC(=O)c1cccc2[nH]ncc12	95
112	CCOC(=O)c1csc(-c2cn(C(C)C)c(=O)n(Cc3ccccc3)c2=O)n1	110
113	CC1(C)CC(=O)C(c2nc3ccc(C(=O)c4ccccc4)cc3[nH]2)=C(O)C1	100
114	CCn1c(C)nc2cc(S(=O)(=O)C(F)(F)F)ccc21	100
115	CCOc1ccc(N2C(=O)c3ccccc3C2Nc2ccccc2OC)cc1 (centres undefined)	93
116	COc1ccc(CNC(=O)Cc2cccs2)cc1OC	104
117	C[N+](C)(C)CCOC(=O)c1ccccc1	100
118	Cc1cc(C)n2c(Br)c(CSc3nc4ccccc4o3)nc2n1	99
119	COc1cc(CNC(=O)CCCC/C=C/C(C)C)ccc1O	101&100
120	CCCN(CCC)c1ncnc2c1cnn2-c1ccc(OC)cc1	104
121	CC(=O)Oc1ccc(Nc2ccccc2)cc1	102
122	CC(C)CS(=O)(=O)C1=NN2C(=N)/C(=C\c3ccc(N(C)C)c(Br)c3)C(=O)N=C2S1	99
123	CC1=C(C(=O)NCCCN2CCN(c3cc(Cl)ccc3C)CC2)C2(CCCCC2)OC1=O	70
124	CCOc1ccccc1NN	99
125	Cc1cc2nc(C(F)(F)F)cc(-c3cccs3)n2n1	105

# Structures listed so far containing a thiophene ring, fused or not (10):
No.	smiles	Vaccinia pol inh
5	COC(=O)c1sc(-c2ccccc2)cc1NC(=O)C1CC1	101
18	O=C(NC1CCCCC1)c1cc2c(=O)[nH]c3ccccc3c2s1	100
20	Cn1c(Cc2ccsc2)nnc1Sc1nc2ccc(Cl)cc2s1	108
62	COc1ccc(C(=O)CSC2=C(C#N)C(c3cccs3)CC(=O)N2)cc1 (centres undefined)	101
74	COC(=O)c1c(NC(=O)CC2Sc3ccccc3NC2=O)sc2c1CCCC2 (centres undefined)	102
87	O=C(Oc1ccc(N(Cc2cccs2)C2=NS(=O)(=O)c3ccccc32)cc1)c1ccccc1	100
106	Cc1onc(-c2c(F)cccc2Cl)c1NC(=O)OCc1sccc1-n1c(C)ccc1C	101
108	Nc1sc2c(c1-c1nc3ccccc3s1)CCC2	100
116	COc1ccc(CNC(=O)Cc2cccs2)cc1OC	104
125	Cc1cc2nc(C(F)(F)F)cc(-c3cccs3)n2n1	105

# (next part)
No.	smiles	Vaccinia pol inh
126	CC(NS(=O)(=O)c1ccccc1)C(c1cccs1)N1CCN(C)CC1 (centres undefined)	101
127	CCOc1ccc(N/C(N)=N/c2nc(C(F)(F)F)cc(C(F)(F)F)n2)cc1	100
128	COc1cccc(-c2nc(CS(=O)(=O)CC(=O)NC3CCCC(C)C3C)c(C)o2)c1 (centres undefined)	96
129	C/C(CC1(O)C(=O)N(C)c2ccccc21)=N\O (centres undefined)	100
130	Cc1noc(C)c1S(=O)(=O)N1CCC(C)CC1	105
131	COc1ccc(CNC(=O)C2CC(=O)N(C3CCCC3)C2)cc1 (centres undefined)	107
132	CCOC(=O)c1c(N2C(=O)C=CC2=O)sc2c1CCC(C)C2 (centres undefined)	89
133	NNC(=O)c1csc(CS(=O)(=O)Cc2ccco2)n1	105
134	O=S1(=O)CC2N=C(Nc3ccc(Cl)c(Cl)c3)SC2C1 (centres undefined)	102
135	CCC(=O)N1c2ccccc2NC2=C(C(=O)CC(C)(C)C2)C1CC1CC=C(C)C1(C)C (centres undefined)	102
136	COc1ccc(/C=C/C(=O)CC(=O)/C=C/c2cccc(O)c2OC)cc1O	101
137	N#CCn1c(C(F)(F)F)nc2ccccc21	95
138	Cc1cccc(Nc2ncnc3c2cnn3-c2ccccc2)c1	99
139	NC(=O)COC(=O)c1cccc(I)c1	102
140	O=C(Nc1ccc(I)cc1)C1(S(=O)(=O)c2ccc(Cl)cc2)CC1	105
141	CCC(Sc1nc2ccc(Br)cc2c2nc3ccccc3n12)C(=O)NCC1CCCO1 (centres undefined)	100
142	Cc1ccnc(NS(=O)(=O)c2ccc(NC(=O)c3ccccc3Br)cc2)n1	100
143	Cc1oc(S(=O)(=O)N2CCOCC2)cc1-c1nc(-c2ccc(C(C)(C)C)cc2)no1	107
144	Nc1nc(N)c2nc(-c3ccccc3)c(N)nc2n1	100
145	CC(Oc1ccccc1)C(=O)Nc1nnc(C2CCCCC2)s1 (centres undefined)	109
146	CN(C(=O)[C@H]1[C@@H]2C[C@@H]3[C@H]1C(=O)O[C@@H]3C2)c1ccccc1Cl	105
147	Cc1cccc(-n2c(=O)c3c4c(sc3n3c(=S)[nH]nc23)CCCC4)c1	100
148	CC1=C(C)CC(C(=O)NCc2ccc3c(c2)OCO3)C(C(=O)O)C1 (centres undefined)	100
149	OCCNc1ccc(Cl)nn1	94

# Screens deposited in PubChem by ICCB-Longwood Screening Facility, Harvard Medical School.

# An excerpt (hit frequency here may not be typical).
